Source: PubChem (Broad Institute)
rRNA inh HTS = inhibits bacterial ribosomal RNA function over humanized ribosomes; E. coli WT GFP vs humanized-ribosome RFP mutants, fluorescence, 24 h; hits give low values; DMSO median 0, no signal -100; GFP signal change (wild-type ribosome), % (no concentration beside the values); 350,000 tested, 1.6% active; AID 720706;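 active = significant combined selectivity score with lowered wild-type GFP, culture density cut under 30%, mutant RFP and density less affected; inactive = any of these conditions unmet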; also: one replicate is shown; some compounds called inactive have numbers as strong as hits
FGF22 binding = binders of recombinant human FGF22 by thermal shift; Q9HCT0; SYPRO orange fluorescence; percent of sucrose octasulfate shift, DMSO zero; calls only at 9.99 µM; 340,000 tested, 1.5% active; AID 651658;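 active = melting point raised past a set limit in the mean and every replicate; three in four hits are not shown here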
Target sequence (Q9HCT0 whole entry, looked up): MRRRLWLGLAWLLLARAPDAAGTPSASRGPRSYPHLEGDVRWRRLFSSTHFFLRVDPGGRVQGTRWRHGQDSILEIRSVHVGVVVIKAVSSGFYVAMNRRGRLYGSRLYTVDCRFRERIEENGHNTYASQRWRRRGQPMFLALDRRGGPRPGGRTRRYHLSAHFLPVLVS
MLL AF4-AF9 inh = blocks AF4 peptide binding to human AF9; AlphaScreen, biotin-AF4 peptide binding to FLAG-AF9; inhibition, % at 10 µM; 350,000 tested, 0.47% active; AID 651704;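 active = every replicate reaching a set inhibition limit, whatever the replicate mean, cut at about 25% in these data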;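 also: 0% = plate neutral control median and 100% = total signal loss; the record names both 10 and 1 µM as test concentration; the first replicate is given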
Target sequence (P42568 whole entry, looked up): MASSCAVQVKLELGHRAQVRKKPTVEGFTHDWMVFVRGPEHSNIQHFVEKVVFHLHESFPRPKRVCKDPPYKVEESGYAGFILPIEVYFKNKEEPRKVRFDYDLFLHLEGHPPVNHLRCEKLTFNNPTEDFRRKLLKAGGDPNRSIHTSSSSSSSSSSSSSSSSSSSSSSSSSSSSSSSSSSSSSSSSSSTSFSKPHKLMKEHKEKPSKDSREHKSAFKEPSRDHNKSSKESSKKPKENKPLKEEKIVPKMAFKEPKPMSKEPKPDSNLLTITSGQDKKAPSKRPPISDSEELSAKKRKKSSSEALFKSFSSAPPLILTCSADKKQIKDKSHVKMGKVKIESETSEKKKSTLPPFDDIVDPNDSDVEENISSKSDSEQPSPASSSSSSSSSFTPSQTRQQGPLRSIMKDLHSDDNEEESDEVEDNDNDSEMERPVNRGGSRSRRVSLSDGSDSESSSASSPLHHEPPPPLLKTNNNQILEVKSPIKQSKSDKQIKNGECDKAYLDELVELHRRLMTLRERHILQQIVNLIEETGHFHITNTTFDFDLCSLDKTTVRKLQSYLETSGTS
rRNA inh HTS OD600 = also measured in rRNA inh HTS; calls as there; OD600 change, %; measured here: OD600 growth;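 optical density of the mix in the first replicate; 0 = DMSO median and -100 = no signal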
rRNA inh HTS RFP = further read-out of rRNA inh HTS, marked with its call; RFP signal change, %; measured here: RFP humanized mutant strains;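 first replicate; 0 = DMSO median and -100 = no signal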
* = called active by the depositor; i = inactive; & = joins results of further samples. Only part of the results is shown, so the mix of outcomes need not match the whole.

rRNA inh HTS | rRNA inh HTS OD600 | rRNA inh HTS RFP | SMILES | FGF22 binding | MLL AF4-AF9 inh
3 | 9 | 1.8 | CC(=O)N1[C@@H]2Cn3c(ccc(-c4ccccc4)c3=O)[C@H]1[C@@H](C(=O)N1CCN(C)CC1)[C@@H]2CO | i | 0.3
3 | 4 | 0.3 | C[C@H]1CN([C@@H](C)CO)C(=O)c2cccc(NS(=O)(=O)c3ccccc3)c2O[C@@H]1CN(C)CC1CC1 | i | -4.1
-34 | -59 | -6.7 | CCc1ccc(-c2n[nH]nc2C2=CC(=O)C[C@H](c3ccc(F)cc3)C2)cc1 | i | -2.9
-8 | -6 | 3.3 | CSc1ncnc2c1ncn2CCCN1CCN(Cc2cccc3ccccc23)CC1 | i | 7.0
-10 | -5 | 9.1 | C[C@H]1CN([C@@H](C)CO)S(=O)(=O)c2ccc(C#CC3CC3)cc2O[C@H]1CN(C)Cc1ccccc1F | i | 2.3
-16 | -15 | 1.6 | Cc1cc(=O)n(C(C)c2ccccc2)n1C(C)c1ccccc1 (centres undefined) | i | -1.8
1 | 12 | 0.1 | C[C@H](CO)N1C[C@H](C)[C@@H](CN(C)S(C)(=O)=O)Oc2ccc(NC(=O)Cc3cn(C)c4ccccc34)cc2CC1=O | i | 11
1 | 5 | -2.6 | O=C(C[C@H]1C[C@H]2c3cc(NC(=O)C4CCOCC4)ccc3O[C@H]2[C@H](CO)O1)NC1CCCC1 | i | -0.9
1 | 4 | -3.6 | CC(=O)Nc1ccc(NC(=O)c2csc([C@@H]3O[C@H](CO)[C@H](O)[C@H](O)[C@H]3O)n2)cc1 | i | 1.7
-8 | -7 | -0.8 | CC(=O)N(C)C[C@H]1Oc2cc(-c3ccc(C#N)cc3)ccc2S(=O)(=O)N([C@H](C)CO)C[C@H]1C | i | 0.0

Next records.
rRNA inh HTS | rRNA inh HTS OD600 | rRNA inh HTS RFP | SMILES | FGF22 binding | MLL AF4-AF9 inh
1 | -10 | -0.5 | Cc1ccc(S(=O)(=O)Nc2cc(C)cc(CCNC=O)c2C)cc1 | i | -2.3
0 | 1 | -0.9 | CCNC(=O)[C@H]1[C@H](CO)[C@H]2Cn3c(ccc(-c4cncnc4)c3=O)[C@H]2N1Cc1ccc2c(c1)OCO2 | i | 0.6
4 | 11 | -3.5 | C[C@H](CO)N1C[C@H](C)[C@H](CN(C)C(=O)Nc2ccc(F)cc2)Oc2ncc(C#C[C@@H](C)O)cc2C1=O | i | -3.1
3 | 1 | 0.5 | O=C(Cc1ccccn1)NCC[C@@H]1CC[C@@H](NS(=O)(=O)c2ccc(F)cc2)[C@H](CO)O1 | i | -0.5
-62 | -80 | -17 | CC(C)C(N)c1csc(NC(=O)Nc2cccc(C(F)(F)F)c2)n1 (centres undefined) | i | 14
-3 | -2 | -2.6 | C[C@H]1CN([C@@H](C)CO)C(=O)c2cccc(NC(=O)Nc3ccc(F)cc3)c2O[C@H]1CN(C)S(=O)(=O)c1cccs1 | i | 1.9
-13 | -15 | 5.2 | CO[C@@H]1CN(C)C(=O)c2ccc(NC(=O)Nc3c(C)noc3C)cc2OC[C@@H](C)N(C(=O)Nc2cccc(Cl)c2)C[C@H]1C | i | 4.2
-1 | 1 | 0.2 | COc1cccc(NC(=O)Nc2ccc3c(c2)C(=O)N(C)C[C@H](OC)[C@@H](C)CN(CC2CC2)[C@H](C)CO3)c1 | i | 1.8
-1 | -4 | 0.9 | COCC(=O)NC[C@@H]1[C@@H](c2ccc(-c3ccccc3)cc2)[C@H](CO)N1C(C)=O | i | 1.0
-52 | -78 | -11 | O=C(C[C@@H]1CC[C@@H]2[C@H](COC[C@H](O)CN2C(=O)Nc2cc(Cl)cc(Cl)c2)O1)NCC1CCCCC1 | i | -0.7

Next part
rRNA inh HTS | rRNA inh HTS OD600 | rRNA inh HTS RFP | SMILES | FGF22 binding | MLL AF4-AF9 inh
21 | 18 | -0.2 | Cc1nc(C(F)(F)F)ccc1C(=O)N1CCC1(C)C(=O)NS(=O)(=O)c1cccc(Cl)c1 (centres undefined) | i | -6.7
1 | 3 | -0.9 | C[C@@H]1CN([C@H](C)CO)C(=O)c2cc(NC(=O)C3CCCCC3)ccc2O[C@@H]1CN(C)C(=O)Nc1ccccc1 | i | -13
-2 | -5 | 0.4 | O=C(NCC[C@@H]1CC[C@H](NC(=O)c2cnccn2)[C@@H](CO)O1)Nc1ccc(F)cc1 | i | 13
1 | -1 | -0.4 | CO[C@H](CN(C)S(=O)(=O)c1ccc(F)cc1)[C@H](C)CN(C(=O)Nc1ccccc1F)[C@@H](C)CO | i | -3.4
-23 | -59 | 22 | CCC(=O)N(C)C[C@@H]1Oc2cc(C#CC3CCCC3)ccc2S(=O)(=O)N([C@@H](C)CO)C[C@H]1C | i | 4.9
-4 | -11 | -3.6 | COc1ccccc1-c1ccc([C@H]2[C@@H](CO)N(C(=O)NC(C)C)[C@H]2C#N)cc1 | i | -10.0
11 | 1 | 0.5 | COc1ccccc1CNC(=O)C1CCN(Cc2nc(-c3ccc(Cl)cc3)oc2C)CC1 | i | 1.9
3 | 0 | 0.2 | CO[C@H]1CN(C)C(=O)c2cc(NS(=O)(=O)Cc3ccccc3)ccc2OC[C@@H](C)NC[C@H]1C | i | 0.1
0 | 2 | -1.3 | CCC(=O)Nc1ccc2c(c1)OC[C@@H](C)N(C(=O)c1ccccc1F)C[C@H](C)[C@H](OC)CN(C)C2=O | i | -0.4
-5 | -34 | 28 | C[C@H](CO)N1C[C@H](C)[C@H](CN(C)Cc2ccc(C(F)(F)F)cc2)Oc2ccc(NC(=O)Nc3ccccc3)cc2C1=O | i | 0.1

Structures shown so far that contain a cyano group (2):
rRNA inh HTS | rRNA inh HTS OD600 | rRNA inh HTS RFP | SMILES | FGF22 binding | MLL AF4-AF9 inh
-8 | -7 | -0.8 | CC(=O)N(C)C[C@H]1Oc2cc(-c3ccc(C#N)cc3)ccc2S(=O)(=O)N([C@H](C)CO)C[C@H]1C | i | 0.0
-4 | -11 | -3.6 | COc1ccccc1-c1ccc([C@H]2[C@@H](CO)N(C(=O)NC(C)C)[C@H]2C#N)cc1 | i | -10.0

(cont.)
rRNA inh HTS | rRNA inh HTS OD600 | rRNA inh HTS RFP | SMILES | FGF22 binding | MLL AF4-AF9 inh
2 | -14 | 6.3 | C[C@H](CO)N1C[C@H](C)[C@H](CN(C)Cc2ccc(Cl)c(Cl)c2)Oc2ccc(NC(=O)Cc3ccccc3)cc2C1=O | i | -3.0
0 | 18 | 1.9 | O=C(Nc1cccc(C(=O)N2CCCC2)c1)C1CCCC1 | i | -1.3
5 | 3 | -1.0 | CCC(=O)N1C[C@@H](O)COC[C@@H]2O[C@@H](CC(=O)NC)CC[C@H]21 | i | -1.5
-1 | 5 | 0.8 | CN(C)C(=O)C[C@@H]1C[C@H]2c3cc(NC(=O)Nc4ccc(F)cc4)ccc3O[C@H]2[C@H](CO)O1 | i | 1.5
-3 | -11 | 11 | COc1ccc(C(=O)N2C[C@H]3[C@@H](c4ccccc42)[C@H](CO)N3Cc2ccc3c(c2)OCO3)cc1 | i | 8.7
1 | -1 | 0.3 | CCS(=O)(=O)N[C@@H]1C=C[C@@H](CC(=O)NCC2CCCCC2)O[C@@H]1CO | i | -1.0
3&-4 | -2&-13 | 0.3&4.6 | C[C@@H]1CN([C@H](C)CO)C(=O)CCCn2nncc2CO[C@H]1CN(C)Cc1ccc(Oc2ccccc2)cc1 | i | 3.2&5.1
7 | 6 | -0.4 | COC(=O)[C@]12C[C@H](CC(=O)N3CCC(c4ccccc4)CC3)C(=O)N(CCC3=CCCCC3)C1=C[C@H](C(C)(C)C)O[C@@H]2C | i | -3.7
22 | 16 | 4.4 | COc1ccc(S(=O)(=O)N2CCCCCC2)cc1C(=O)N1CCN(C(C)=O)CC1 | i | -2.6
-1 | -2 | -0.5 | C[C@@H]1CN([C@H](C)CO)C(=O)c2cc(NC(=O)NC3CCCCC3)ccc2O[C@@H]1CN(C)Cc1ccc(Cl)c(Cl)c1 | i | -1.5

Continued:
rRNA inh HTS | rRNA inh HTS OD600 | rRNA inh HTS RFP | SMILES | FGF22 binding | MLL AF4-AF9 inh
4&11 | 7&22 | 5.5&-1.3 | CCCC#Cc1cnc2c(c1)C(=O)N([C@H](C)CO)C[C@H](C)[C@@H](CN(C)C(=O)CCN1CCCCC1)O2 | i | 1.5&-2.7&-2.3
3 | 8 | 0.1 | COc1ccc(S(=O)(=O)Nc2ccc3c(c2)CC(=O)N([C@@H](C)CO)C[C@H](C)[C@H](CN(C)C(=O)Nc2c(C)noc2C)O3)cc1 | i | -2.0
-5 | -9 | -3.3 | c1ccc(CN2CCC3CC2c2cc(N4CCCCC4)ccc23)cc1 (centres undefined) | i | 22
34&2 | 15&-1 | 3.5&1.1 | C[C@H](CO)N1C[C@H](C)[C@@H](CN(C)C(=O)Nc2ccc(N3CCN(C)CC3)cc2)OCc2cnnn2CCCC1=O | i | -1.9&8.2
1 | 3 | -1.8 | COCC(=O)Nc1ccc2c(c1)OC[C@H](C)N(C(=O)CC1CC1)C[C@@H](C)[C@@H](OC)CN(C)C2=O | i | 0.7
-16 | -11 | 0.1 | CC1(C(=O)NCc2ccccc2)CSCC(=O)N1CCOc1ccccc1 (centres undefined) | i | -1.4
3 | 5 | -5.7 | O=C(NCC1CC1)[C@@H]1[C@@H](CO)[C@@H]2Cn3c(ccc(-c4cncnc4)c3=O)[C@@H]2N1C(=O)NC1CCCC1 | i | -0.7
-3 | -56 | 17 | C[C@H](CO)N1C[C@H](C)[C@H](CN(C)Cc2ccc(-c3ccccc3)cc2)Oc2ccc(NS(C)(=O)=O)cc2CC1=O | i | 5.3
-59 | -78 | -7.9 | COc1ccc(S(=O)(=O)N2CCCCN3[C@@H](CO)[C@@H](c4ccc(-c5cccnc5)cc4)[C@@H]3C2)cc1 | i | 2.0
-4 | -4 | -1.9 | Cc1ccccc1-c1ccc2c(c1)O[C@@H](CN(C)C(=O)Nc1ccccc1)[C@@H](C)CN([C@@H](C)CO)S2(=O)=O | i | 2.6

New compounds follow
rRNA inh HTS | rRNA inh HTS OD600 | rRNA inh HTS RFP | SMILES | FGF22 binding | MLL AF4-AF9 inh
5 | 0 | 0.4 | Cc1cc(O)ccc1NC(=O)Cc1cccc2ccccc12 | i | -18
-2 | -14 | -0.5 | COc1ccc(-c2ccccc2[C@H]2[C@@H](C#N)N(C(=O)NC3CCCCC3)[C@H]2CO)cc1 | i | -7.7
7 | 15 | 3.2 | COc1ccc(CN(C)[C@H]2C[C@H]3c4[nH]c5ccccc5c4CCN3C[C@H]2[C@H](C)O)cc1 | i | 0.4
0 | -6 | 3.2 | CN(C)CC(=O)N1CCCCN2[C@H](C1)[C@@H](c1ccc(-c3cccc(C(=O)N(C)C)c3)cc1)[C@@H]2CO | i | -2.7
-30 | -54 | 20 | C[C@@H]1CN([C@@H](C)CO)S(=O)(=O)c2ccc(C3=CCCCC3)cc2O[C@H]1CN(C)Cc1cccnc1 | i | 9.9
1 | 8 | 1.4 | C[C@H]1CN([C@@H](C)CO)C(=O)c2cccc(NC(=O)CCCCCC(=O)Nc3ccccc3N)c2O[C@@H]1CN(C)C(=O)Nc1ccc(F)cc1 | i | 4.8
4 | 3 | -1.9 | CNC[C@@H]1Oc2ccc(NC(=O)C3CC3)cc2C(=O)N([C@H](C)CO)C[C@H]1C | i | -0.1
-6 | 1 | 3.9 | COc1ccc2c3c([nH]c2c1)[C@@H](CO)N(CC1CC1)CC31CN(C(=O)c2cccc(F)c2)C1 | i | -1.5
15 | 21 | 2.1 | CC(C)NC(=O)Nc1nnc([C@@H]2C[C@H](O)[C@@H](CO)O2)s1 | i | -6.2
1 | 6 | -0.3 | CC(=O)N(C)C[C@H]1Oc2ncc(C#Cc3cccc(F)c3)cc2C(=O)N([C@H](C)CO)C[C@@H]1C | i | 2.8

(continued)
rRNA inh HTS | rRNA inh HTS OD600 | rRNA inh HTS RFP | SMILES | FGF22 binding | MLL AF4-AF9 inh
1 | -2 | 5.5 | O=C(C[C@H]1CC[C@H](NC(=O)CN2CCOCC2)[C@H](CO)O1)NCCc1ccncc1 | i | -1.3
-3 | -1 | -0.8 | C[C@@H]1CCCCO[C@H](CN(C)S(=O)(=O)c2ccccc2)[C@@H](C)CN([C@H](C)CO)C(=O)c2cc(NS(=O)(=O)c3ccccc3)ccc2O1 | i | -2.2
1 | -6 | -2.1 | COc1ccc(S(=O)(=O)Nc2ccc3c(c2)C(=O)N([C@@H](C)CO)C[C@@H](C)[C@H](CN(C)C(=O)Cc2ccccc2)OCCCC[C@H](C)O3)cc1 | i | -1.4
-1 | -13 | -0.3 | CN1CCN(C(=O)C[C@H]2CC[C@H](NC(=O)Nc3ccccc3F)[C@H](CO)O2)CC1 | i | 0.2

Profiles, looked up by structure. Values in the order: rRNA inh HTS, rRNA inh HTS OD600, rRNA inh HTS RFP, FGF22 binding, MLL AF4-AF9 inh
CN1CCN(C(=O)C[C@H]2CC[C@H](NC(=O)Nc3ccccc3F)[C@H](CO)O2)CC1 is entered as -1, -13, -0.3, i, 0.2
O=C(C[C@H]1CC[C@H](NC(=O)CN2CCOCC2)[C@H](CO)O1)NCCc1ccncc1 is entered as 1, -2, 5.5, i, -1.3
C[C@@H]1CCCCO[C@H](CN(C)S(=O)(=O)c2ccccc2)[C@@H](C)CN([C@H](C)CO)C(=O)c2cc(NS(=O)(=O)c3ccccc3)ccc2O1 is entered as -3, -1, -0.8, i, -2.2
